Sa growth inh: S. aureus growth inhibition; S. aureus RN4220 growth, OD600, 20 h, 42 °C; active compounds read low; relative growth, % (no concentration beside the values); AID 720641; actives 0.53% (n = 170,000);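 active = growth at 42 °C up to 50% and 20 or more points under that at 30 °C, or under 10% at both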;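 also: 300 nL library stock went into each well; scaled to the means of positive and negative controls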
GIV-Gai inh: inhibitors of GIV GBA-motif binding to rat Galpha-i3. P08753. Galpha-i3/FITC-GIV peptide fluorescence polarization, 90 min; active compounds read low; scaled: aluminum fluoride 0%, vehicle 100%. percent of control (FP), % (concentration not given with the values). actives 0.42% (n = 210,000). AID 1224905;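 active = replicate mean at 85% of control or lower, very high polarization wells dropped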;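 also: wells of about 15 µL received 100 nL stock; the first replicate is given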
Target sequence (P08753 whole entry, looked up): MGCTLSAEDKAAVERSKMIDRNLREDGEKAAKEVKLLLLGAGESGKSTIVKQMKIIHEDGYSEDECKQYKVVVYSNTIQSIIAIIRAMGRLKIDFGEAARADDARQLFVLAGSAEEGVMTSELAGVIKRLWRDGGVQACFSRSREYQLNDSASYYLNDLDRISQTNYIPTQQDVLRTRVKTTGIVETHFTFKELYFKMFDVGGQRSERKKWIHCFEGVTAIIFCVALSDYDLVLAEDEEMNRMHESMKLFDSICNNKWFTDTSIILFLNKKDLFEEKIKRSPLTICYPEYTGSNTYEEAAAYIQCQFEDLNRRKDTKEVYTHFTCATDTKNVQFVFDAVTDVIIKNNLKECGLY
HCMV NEC inh: cytomegalovirus nuclear egress complex inhibition; actives 0.15% (n = 190,000); HTRF UL50-UL53 interaction, normalized percent inhibition; AID 1918969; inhibition, % (concentration not given with the values);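 active = both replicates at 50% or more, plus weaker picks with an unusually low signal ratio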;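 also: stock transfer was 100 nL into about 20 µL; 0% = negative control wells and 100% = wells with untagged competitor protein; inactives centre near -12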
Sa growth inh second temp: further read-out of Sa growth inh, marked with its call; relative growth, %; measured here: growth at 30 °C;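 optical density after 20 h as mean of two plates; 100% = untreated growth and lower means inhibition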
* = called active by the depositor; x = not tested or not shown; & = joins results of further samples.

Start of the data: the first 4 entries as a preview:
SMILES	Sa growth inh	Sa growth inh second temp	GIV-Gai inh	HCMV NEC inh
O=C(NCC1CC1)c1ccccc1NS(=O)(=O)c1cccc2nonc12	103	95	97	-26
CC(=O)Nc1ccc(NCC(=O)c2ccccc2)cc1	84	82	x	-30
O=C(O)C1CCCCC1C(=O)Nc1ccc(C(=O)N2CCCCC2)cc1 (stereo not drawn)	118	84	x	-7
O=C(c1cnn(-c2cccc(F)c2)c1-n1cccc1)N1CCCC1	93	97	101	-6

Main list, from the first entry:
SMILES	Sa growth inh	Sa growth inh second temp	GIV-Gai inh	HCMV NEC inh
O=C(NCC1CC1)c1ccccc1NS(=O)(=O)c1cccc2nonc12	103	95	97	-26
CC(=O)Nc1ccc(NCC(=O)c2ccccc2)cc1	84	82	x	-30
O=C(O)C1CCCCC1C(=O)Nc1ccc(C(=O)N2CCCCC2)cc1 (stereo not drawn)	118	84	x	-7
O=C(c1cnn(-c2cccc(F)c2)c1-n1cccc1)N1CCCC1	93	97	101	-6
COc1ccccc1NC(=O)/C=C\c1ccco1	110	75	131	x
CC(C)(C)OC(=O)N1CCC(C(=O)OCC(=O)Nc2ccc(F)cc2)CC1	100	94	x	8
CC1CCN(c2nc(Nc3ccccc3)c3cnn(C)c3n2)CC1	68	48	96	1
Cc1ccc(NC(=O)/C=N/O)cc1	98	86	x	-9
COC(=O)NNc1ccccc1	84	93	x	2
Cc1cccc(NC(=O)N2CCN(c3cc(N(C)C)nc(C)n3)CC2)c1	x	x	98	-21
COc1ccc(C2C(=O)N(C3CCCCC3)CC(=O)N2C2CCCCC2)cc1 (stereo not drawn)	79	91	99	x
CC(C)c1ccc(Nc2ncnc3c2nc2n3CCCC2)cc1	141	89	109	x
CC1=C(CCC2(C)OCCO2)C(C)(C)CCC1	97	71	104	-3
COc1ccccc1CNC(=O)c1cc2cccc3c2n1CCS3	128	90	115	x
CC1CCCCN1c1ncnc2onc(-c3ccc(Cl)cc3)c12 (stereo not drawn)	94	79	105	-4
Cc1ccc(-c2csc(CC#N)n2)cc1	103	82	152	-2
CCOc1ccc(CCNC(=O)C2CCN(C(=O)N3CC(CC)Oc4ccccc43)CC2)cc1 (stereo not drawn)	97	89	101	-13
COc1ccc(-c2nc(SCCOc3ccccc3Cl)n3[nH]c(=O)cc3n2)cc1	93	81	99	x
O=C(Nc1nonc1-c1nc2ccccc2[nH]1)c1ccncc1	89	77	101	-24
CC(C)(C)c1ccc2c(c1)OCCOCCOCCO2	90	87	x	-11
N#CCCNc1ccc2c(c1)OCCO2	116	85	x	-20
N=C1S/C(=C\c2ccc(F)cc2)C(=O)N1c1nccs1	5.1*	6.0*	113	-28
COc1ccc(C2Nc3cc(C(F)(F)F)c(S(N)(=O)=O)cc3S(=O)(=O)N2)cc1 (stereo not drawn)	95	86	x	-4
COc1cc(OC)c(NC(=O)N2CCCN(C(=O)c3nonc3N)CC2)cc1Cl	x	x	99	-10
O=C(O)C1C2C=CC(C2)C1C(=O)N1CCc2ccccc21 (stereo not drawn)	84	96	101	x
Clc1ccc(CSc2nncn3c2cc2occc23)cc1	82	70	121	x
CN(C(=O)c1cc(-c2ccc(Cl)c(Cl)c2)on1)c1ccccc1	94	91	110	x
COc1ccc2cc3cc(C(=O)NCc4ccccc4OC)oc3nc2c1	115	93	104	-12
COc1ccc(NC(=O)c2nnc(C(=O)NCCCN3CCC(N4CCCCC4)CC3)s2)cc1	x	x	109	-9
O=C1CC(c2nc3ccccc3[nH]2)CN1c1ccc(F)cc1 (stereo not drawn)	108	85	105&105	13
Cc1ccc(C)c(NCC(=O)NC2CCCCC2)c1	109	94	x	-12
COc1cccc(C2CC(=O)Nc3cc4c(cc32)OCO4)c1 (stereo not drawn)	115	97	110&104	0&-2
Oc1c(/C=N/n2cnnc2)sc2ccccc12	108	94	108	-50
Cc1nc(-c2cc(S(=O)(=O)N3CCCC(C(=O)N4CCN(c5ccccc5)CC4)C3)c(C)s2)no1 (stereo not drawn)	x	x	109	0
Cc1ccc(C(=O)N/C(=C\c2ccco2)C(=O)N(C)C)cc1	78	75	101	-18
CN(C)c1ccc(C(CNC(=O)c2ccccc2)N(C)C)cc1 (stereo not drawn)	104	91	105	-8
O=c1c2c3c(sc2ncn1/N=C/c1cc(Br)ccc1O)CCCC3	84	95	x	0
CC(C)c1ncc(C(O)c2cccc3ccccc23)n1C (stereo not drawn)	119	108	105	-30
CCOC(=O)CCn1cnc2onc(-c3ccccc3Cl)c2c1=O	105	88	109	10
CC1Cc2ccccc2N1C(=O)/C=C/c1cccc(F)c1 (stereo not drawn)	88	69	x	-26

23 of the compounds above, in markdown:
| smiles | Sa growth inh | Sa growth inh second temp | GIV-Gai inh | HCMV NEC inh |
| --- | --- | --- | --- | --- |
| CC1CCCCN1c1ncnc2onc(-c3ccc(Cl)cc3)c12 (stereo not drawn) | 94 | 79 | 105 | -4 |
| Cc1ccc(-c2csc(CC#N)n2)cc1 | 103 | 82 | 152 | -2 |
| CCOc1ccc(CCNC(=O)C2CCN(C(=O)N3CC(CC)Oc4ccccc43)CC2)cc1 (stereo not drawn) | 97 | 89 | 101 | -13 |
| COc1ccc(-c2nc(SCCOc3ccccc3Cl)n3[nH]c(=O)cc3n2)cc1 | 93 | 81 | 99 | x |
| O=C(Nc1nonc1-c1nc2ccccc2[nH]1)c1ccncc1 | 89 | 77 | 101 | -24 |
| CC(C)(C)c1ccc2c(c1)OCCOCCOCCO2 | 90 | 87 | x | -11 |
| N#CCCNc1ccc2c(c1)OCCO2 | 116 | 85 | x | -20 |
| N=C1S/C(=C\c2ccc(F)cc2)C(=O)N1c1nccs1 | 5.1* | 6.0* | 113 | -28 |
| COc1ccc(C2Nc3cc(C(F)(F)F)c(S(N)(=O)=O)cc3S(=O)(=O)N2)cc1 (stereo not drawn) | 95 | 86 | x | -4 |
| COc1cc(OC)c(NC(=O)N2CCCN(C(=O)c3nonc3N)CC2)cc1Cl | x | x | 99 | -10 |
| O=C(O)C1C2C=CC(C2)C1C(=O)N1CCc2ccccc21 (stereo not drawn) | 84 | 96 | 101 | x |
| Clc1ccc(CSc2nncn3c2cc2occc23)cc1 | 82 | 70 | 121 | x |
| CN(C(=O)c1cc(-c2ccc(Cl)c(Cl)c2)on1)c1ccccc1 | 94 | 91 | 110 | x |
| COc1ccc2cc3cc(C(=O)NCc4ccccc4OC)oc3nc2c1 | 115 | 93 | 104 | -12 |
| COc1ccc(NC(=O)c2nnc(C(=O)NCCCN3CCC(N4CCCCC4)CC3)s2)cc1 | x | x | 109 | -9 |
| O=C1CC(c2nc3ccccc3[nH]2)CN1c1ccc(F)cc1 (stereo not drawn) | 108 | 85 | 105&105 | 13 |
| Cc1ccc(C)c(NCC(=O)NC2CCCCC2)c1 | 109 | 94 | x | -12 |
| COc1cccc(C2CC(=O)Nc3cc4c(cc32)OCO4)c1 (stereo not drawn) | 115 | 97 | 110&104 | 0&-2 |
| Oc1c(/C=N/n2cnnc2)sc2ccccc12 | 108 | 94 | 108 | -50 |
| Cc1nc(-c2cc(S(=O)(=O)N3CCCC(C(=O)N4CCN(c5ccccc5)CC4)C3)c(C)s2)no1 (stereo not drawn) | x | x | 109 | 0 |
| Cc1ccc(C(=O)N/C(=C\c2ccco2)C(=O)N(C)C)cc1 | 78 | 75 | 101 | -18 |
| CN(C)c1ccc(C(CNC(=O)c2ccccc2)N(C)C)cc1 (stereo not drawn) | 104 | 91 | 105 | -8 |
| O=c1c2c3c(sc2ncn1/N=C/c1cc(Br)ccc1O)CCCC3 | 84 | 95 | x | 0 |

More results follow.
SMILES	Sa growth inh	Sa growth inh second temp	GIV-Gai inh	HCMV NEC inh
Cc1ccccc1S(=O)(=O)Cc1ccc(C(=O)NC(C)c2ccccc2)o1 (stereo not drawn)	92	83	99	x
CC(C)Sc1ncc(Cl)c(C(=O)Nc2nnc(C(C)C)s2)n1	97	83	99	-26
CCOc1ccc(CCNC(=O)CN2CCN(Cc3ccccc3F)C2=O)cc1OCC	84	84	104	-18
O=C1CC(c2ccccc2)CC2=C1C(c1ccccc1)Nc1ccccc1N2 (stereo not drawn)	110	75	x	-7
O=S(=O)(c1ccccc1C(F)(F)F)N1C=CC(C(F)(F)F)=NCC1	83	90	102	-27
Cc1cc(C)c2nc(N3CCCC(C(=O)NCc4cccc(Br)c4)C3)sc2c1 (stereo not drawn)	128	89	102	-34
Cc1ccc(C(=O)COc2cccc(-c3cnc4ccccc4n3)c2)cc1	99	88	103	-10
CSc1nc(=O)cc(N)n1-c1ccccc1	90	85	102	-22
COc1ccc(CCN2C(=O)CN(C3CCC(C)CC3)C(=O)C2c2ccc(OC(C)C)c(OC)c2)cc1OC (stereo not drawn)	108	87	106	x
CCCC(=O)Nc1ccc2c(c1)ncn2CC	91	97	102	-3
CC(=O)OCC(=O)c1ccc2ccn(C(C)=O)c2c1	99	79	99	x
O=C(/C=C/c1ccccc1)Nc1ncnc2sc3c(c12)CCC3	108	86	99	x
O=C1[C@@H]2CSC(c3ccc(Cl)cc3)N2C(=O)N1c1ccccc1 (stereo partly drawn)	107	82	100	-9
CCOc1ccc(Oc2nc(NCC(C)C)nc(NC(C)(C)C)n2)nn1	91	91	104	-5
COc1ccc(C(=O)NCCNc2nc3c(C)cccc3cc2C#N)cc1OC	116	101	107	-24
CC1=CCC(C(=O)Nc2nccs2)C(C(=O)Nc2nccs2)C1 (stereo not drawn)	121	96	108	-1
Cc1ccc(C(=O)N(C)CC(=O)Nc2ccc(F)c(F)c2F)o1	91	96	x	-6
N#CC1(S(=O)(=O)c2ccc(Cl)cc2)CC1	110	82	x	-15
Cc1nnc(N2CCN(c3cccc(C(F)(F)F)c3)CC2)c2c1nnn2Cc1ccccc1	93	91	102	-36
Cc1cccc(-n2c(=O)c3c(c4cc(C)ccc4n3C)n(CC(=O)Nc3ccc(C)cc3C)c2=O)c1	101	94	110	x
c1csc(C2SCCS2)c1	95	101	x	8
CCc1ccccc1-n1c(SCC(=O)Nc2ccc(C)cc2)nc2n[nH]c(C)c2c1=N	87	86	98	x
N#C/C(=C\c1ccc(-c2ccc(Cl)c(C(=O)O)c2)o1)c1nc2ccccc2[nH]1	99	92	-58*	-76
O=C(C1CC(c2c(F)cccc2Cl)=NO1)N1CCCC1 (stereo not drawn)	78	89	97&101	-19
COC(=O)c1cc2sccc2n1Cc1ccccc1	100	111	106	8
Cc1nc(SC(C)C(=O)NCc2ccc3c(c2)OCO3)nc(C)c1C (stereo not drawn)	74	79	x	-14
CCN1CCN(c2cc(C)nc3c(-c4ccc(Cl)cc4)c(C(F)(F)F)nn23)CC1	x	x	102	-5
Cc1ccc(-n2nc(N3CCCN(C(=O)c4[nH]nc5c4CCc4ccccc4-5)CC3)ccc2=O)cc1C	x	x	101	-28
CCOC(=O)Nc1ccc2c(c1)Nc1ccccc1S2	107	72	101	-32
Cc1nn(C)c2nc(OC(C)C(=O)N3CCc4ccccc43)cc(-c3ccccc3)c12 (stereo not drawn)	x	x	97	-28
O=C(CCn1nc(-c2ccccc2)c2ccccc2c1=O)N1CCCCC1	98	82	99	-17
CCOc1cc(NS(=O)(=O)c2ccc(OC)cc2)c(OCC)cc1NC(=O)CC	122	98	101	-15
NC(=O)Cn1nnc2ccccc2c1=O	99	88	x	-43
COc1ccc(NC(=O)Cn2c(=O)n(CCc3ccccc3)c(=O)c3sc4ccccc4c32)cc1	98	89	108	4
OCC1CCCN(Cc2ccc(F)cc2)C1 (stereo not drawn)	100	100	107	-6
Cc1coc(NC(=O)CSc2nc(-c3ccc4c(c3)OCO4)cc(C(F)(F)F)c2C#N)n1	97	97	111	4
COc1ccc(Nc2c(-c3cccc(O)c3)nc3ncccn23)cc1	97	81	106	-31
CCN(CC)C(=O)Cn1nnc(-c2ccccc2)n1	105	92	102	-8
O=C(CSC1=NCCN1)Nc1cc(C(F)(F)F)ccc1Cl	68	69	x	-33
COc1cccc(NC(=O)N(Cc2cn(C)c3ccccc23)C2CCCCC2)c1	100	89	104	-27
